PMP22 txn = Cell-based coincidence reporter assay to measure PMP22 gene transcription in S16 Pmp22-F2sN cells - Primary screen. S16 Pmp22-F2sN Schwann cells (luciferase reporters placed in the Pmp22 gene), FLuc/NLuc coincidence luminescence, 24 h. Potency, µM (doses to about 57.5 µM), for inactives: top-dose activity change, negative = inhibition, hits mostly inhibitors. actives 2% (n = 43,000). AID 1508649, 2021; active = clear falling dose curves in both reporters; inconclusive = both reporters move, but less clearly or upward; inactive = either reporter flat; the % is the NLuc reporter signal; note: % is set by controls: 0 for no effect and ±100 for the full control effect; some results filed as inactive show a strong effect at the top dose
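S16 Schwann cells carrying FLuc/NLuc coincidence reporter in the Pmp22 3' UTR treated with compound 24 h at 37C; FLuc then NLuc luminescence read sequentially by dual-luciferase reagents.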
HTT promoter inh = Primary qHTS for Identification of Small Molecule Inhibitors of Huntingtin Promoter Activity; HEK293 HTT promoter firefly luciferase reporter (activity 0% = vehicle and -100% = no light), 24 h; Potency, µM (top dose mostly 57.5 µM), for the others: top-dose activity change, negative = inhibition, most hits filed as inhibitors; actives 0.93% (n = 48,000); active = well fitted inhibition curve with a large enough effect; inconclusive = small, poorly fitted or top-dose-only effect; inactive = no such curve, though single readings can be large or run the other way; note: nearly all actives have a fitted effect of over 50% in size
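Quantitative HTS used concentration series of up to 57.5 uM final on HEK293 luciferase reporter cells, 24 h at 37 degrees C. Readout was Dual-Glo firefly luminescence.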
The depositor's hits bear a star; u = inconclusive; x = no result given; & = joins results of further samples; [ ] = another dose, or the depositor's remark. Potency is the fitted concentration of half-maximal effect.

SMILES	PMP22 txn	HTT promoter inh
COc1cc(C(=O)N2CCc3c([nH]c4ccccc34)C2c2ccc(C)cc2)cc(OC)c1OC (stereo unspecified)	u	u
COC(=O)c1ccc2c(c1)N(Cc1ccc(F)cc1)C(=O)c1ccccc1S2	-9%	-23%
CSc1cccc(NC(=O)Cn2c(=O)n(Cc3ccccc3)c(=O)c3sc4ccccc4c32)c1	u	-15%
Cc1c(CCNS(=O)(=O)c2ccccc2)sc2nc(-c3ccc(Cl)cc3)nn12	u	u
COc1ccc(C2CC(=O)N(CC(=O)Nc3ccc(C(F)(F)F)cc3)c3ccccc3S2)cc1 (stereo unspecified)	-12%	-23%
CCOc1ccc(CCNC(=O)CSc2cc(=O)n(C)c3cc(Cl)ccc23)cc1OCC	-26%	-16%
O=C(Nc1cc(F)ccc1F)C1COc2ccccc2C1 (stereo unspecified)	-16%	-3%
COc1ccc(Cn2c(C(=O)O)c(CNCc3ccccc3F)c3ccc(OC)cc32)cc1	u	u
O=C(NCc1ccccc1Cl)C1CCN(S(=O)(=O)c2ccc3c(c2)CCCN3C(=O)C2CCC2)CC1	8.5µM*	u
COC(=O)C(C)Sc1nc2c([nH]c3ccccc32)c(=O)n1-c1ccc(OC)cc1 (stereo unspecified)	u	-8%
COC(=O)c1scc(-c2ccc(C)cc2)c1S(=O)(=O)Nc1ccc(NC(C)=O)cc1	u	u
CCn1c(=O)c2cc(C(=O)NCc3ccc(F)cc3Cl)sc2c2ccccc21	3%	-4%
CC(=O)N1CCOc2cc(S(=O)(=O)N(C)Cc3ccccc3)c(Cl)cc21	-25%	-18%
O=C(Nc1ccc(Cl)cc1)c1cc(S(=O)(=O)N2CCCc3ccccc32)ccc1F	u	25µM*
COC(=O)c1ccc(NC(=O)c2cnn(-c3ccc(Cl)cc3)c2C2CCN(C(=O)OC(C)(C)C)CC2)cc1	u	6%
Cc1ccc(NC(=O)Cn2cc(S(=O)(=O)Cc3ccc(F)cc3)c3ccccc32)cc1Cl	u	u
CCOC(=O)c1c(S(=O)(=O)N2CCC(C(=O)N3CCN(c4cc(C)ccc4C)CC3)CC2)c(C)n(C)c1C	1%	u
CCC(C)NC(=O)C1CCN(S(=O)(=O)c2ccc3c(c2)CCCN3C(C)=O)CC1 (stereo unspecified)	10%	-9%
Cc1ccc(C)c(CN2CCC(CNC(=O)c3cc4ccc5cccnc5c4[nH]3)CC2)c1	u	u
O=C(Cn1cnc(S(=O)(=O)N2CCCC2)c1)Nc1ccc(OC(F)(F)F)cc1	-50%	-18%
Cc1ccc(NC(=O)CSc2nnc3nc(C)cc(C)n23)cc1	-8%	-19%
CCc1nnc2n1N(C(C)=O)C(c1ccc(C(C)(C)C)cc1)=C(C(C)=O)S2	u	u
CCc1ccccc1NC(=O)CSc1nc2c(c(=O)[nH]1)CN(Cc1ccccc1OC)CC2	-5%	-18%
CCOC(=O)CNc1ncnc2c1nnn2C	u	-8%
COCCCNC(=O)CSc1c2c(nc3ccc(Cl)cc13)CCCC2	u	-12%
Cc1ccc(C(=O)O)cc1NC(=O)c1nsc2ccccc12	1%	4%
O=C1CS(=O)(=O)C2(C(=O)N(Cc3ccccc3)c3ccccc32)N1c1ccc(F)c(Cl)c1 (stereo unspecified)	-74%	u
CCN(CC)S(=O)(=O)c1ccc(N2CCCCS2(=O)=O)cc1	-8%	7%
CCOC(=O)c1c(C)[nH]c(C)c1S(=O)(=O)N1CCC(C(=O)NCc2cccc(C)c2)CC1	65%	-20%
COc1cccc(Cn2cnc3c2c(=O)n(C)c(=O)n3C)c1	u	14µM*
CC(C)CCNc1nc2c(S(=O)(=O)c3ccc(Br)cc3)nnn2c2ccsc12	u	1%
CCOc1ccccc1NS(=O)(=O)c1ccc2[nH]c3c(c2c1)CCCCC3	u	u
N#Cc1nc(-c2ccc(COc3ccc(Cl)cc3)o2)oc1N1CCN(c2ccccc2)CC1	-3%	-16%
CCN1CCSc2ccc(C(=O)NCc3ccc(OC)cc3)cc21	-4%	-9%
CCN1CCN(CCCNC(=O)Cn2c(-c3cccs3)cc3cc(F)ccc32)CC1	u	u
CCOC(=O)c1ccc(NC(=O)CN(Cc2ccc(C)cc2)S(=O)(=O)c2ccc(C)cc2)cc1	u	u
Cc1ccc(-n2cc(C(=O)OCc3ccc(Cl)cc3)c3ccccc3c2=O)cc1	-8%	-11%
O=C(CSc1nc2c([nH]c3ccccc32)c(=O)n1-c1ccccc1)Nc1ccc(Cl)c(Cl)c1	-64%	u
COc1cc(NC(=O)C(Cc2ccccc2)NS(=O)(=O)c2cccc3nsnc23)cc(OC)c1 (stereo unspecified)	7%	-29%
CCN(Cc1ccccc1)S(=O)(=O)c1ccc(F)c(C(=O)Nc2ccc(C(C)C)cc2)c1	-15%	-25%
Cc1oc(-c2ccc(C(=O)NCc3ccc(F)cc3)cc2)nc1CS(=O)c1ccccc1 (stereo unspecified)	-19%	u
COc1cccc(C2c3c(oc4ccc(C)cc4c3=O)C(=O)N2CCCN2CCOCC2)c1OC (stereo unspecified)	-1%	-3%
CCCN1CCCc2cc(CN(CCCN3CCOCC3)C(=O)Nc3ccc(OCC)cc3)ccc21	u	0%
CN1CCN(C(=O)c2cnn(-c3cccc(F)c3)c2C2CCN(C(=O)OC(C)(C)C)CC2)CC1	-5%	-1%
COc1ccc(C(=O)CC2(O)C(=O)Nc3c(C)cccc32)c(OC)c1OC (stereo unspecified)	-20%	-2%
Cc1ccc2c(c1)-c1nc(-c3ccc4c(c3)NC(=O)CO4)cc(-c3ccc(Cl)cc3)c1CO2	-27%	-11%
COc1ccc(NC(=O)c2oc3ccccc3c2NC(=O)COc2ccc(C(C)C)cc2)c(OC)c1	-15%	-11%
N#Cc1ccccc1CSc1nnc(-c2ccc(Br)cc2)o1	-30%	26%
CCOc1ccc(C2C(C(N)=O)=C(C)Nc3nc(SCc4ccccc4F)nn32)cc1 (stereo unspecified)	-2%	-1%
COc1ccc(CNC(=O)CN(c2ccc(C)cc2)S(=O)(=O)c2c(C)n[nH]c2C)cc1	-4%	-5%
Following part:
SMILES	PMP22 txn	HTT promoter inh
CCC1=C(c2ccc(C)cc2)S(=O)(=O)N=C1N1CCC(C(=O)Nc2ccccc2F)CC1	-16%	u
CCOc1ccc(-n2c(Cc3ccccc3)nnc2SCc2nc(-c3ccccc3OC)no2)cc1	u	-15%
COc1cccc(CNC(=O)Cn2nc3c(cc2=O)CCCC3)c1OC	2%	8%
COC(=O)c1cccc(Nc2c(-c3ccc(O)c(OC)c3)nc3nc[nH]n23)c1	u	-11%
COc1ccc(CNC(=O)Cc2csc3ccccc23)cc1OC	-19%	-7%
COc1ccc(NC(=O)CCS(=O)(=O)c2cc(Br)cc3c2N(C(C)=O)CC3)c(OC)c1	10%	-8%
COc1ccccc1CNC(=O)CSc1ncc2c(n1)-c1ccccc1N(Cc1ccc(C)cc1)S2(=O)=O	u	-6%
CCOC(=O)C1CCN(C(=O)Cn2ncc3c4ccccc4n(Cc4ccccc4F)c3c2=O)CC1	30%	-22%
O=C(Nc1cccc2cccnc12)c1cccc2ccccc12	u	42%[activator]
Cc1cccc(-c2noc(-c3ccc(N4CCN(C)CC4)c([N+](=O)[O-])c3)n2)c1	u	1.4µM*

Given comma-delimited: entries from further up
Molecule,PMP22 txn,HTT promoter inh
COc1ccc(C(=O)CC2(O)C(=O)Nc3c(C)cccc32)c(OC)c1OC (stereo unspecified),-20%,-2%
Cc1ccc2c(c1)-c1nc(-c3ccc4c(c3)NC(=O)CO4)cc(-c3ccc(Cl)cc3)c1CO2,-27%,-11%
COc1ccc(NC(=O)c2oc3ccccc3c2NC(=O)COc2ccc(C(C)C)cc2)c(OC)c1,-15%,-11%
N#Cc1ccccc1CSc1nnc(-c2ccc(Br)cc2)o1,-30%,26%
CCOc1ccc(C2C(C(N)=O)=C(C)Nc3nc(SCc4ccccc4F)nn32)cc1 (stereo unspecified),-2%,-1%
COc1ccc(CNC(=O)CN(c2ccc(C)cc2)S(=O)(=O)c2c(C)n[nH]c2C)cc1,-4%,-5%
CCC1=C(c2ccc(C)cc2)S(=O)(=O)N=C1N1CCC(C(=O)Nc2ccccc2F)CC1,-16%,u
CCOc1ccc(-n2c(Cc3ccccc3)nnc2SCc2nc(-c3ccccc3OC)no2)cc1,u,-15%
COc1cccc(CNC(=O)Cn2nc3c(cc2=O)CCCC3)c1OC,2%,8%
COC(=O)c1cccc(Nc2c(-c3ccc(O)c(OC)c3)nc3nc[nH]n23)c1,u,-11%
COc1ccc(CNC(=O)Cc2csc3ccccc23)cc1OC,-19%,-7%
COc1ccc(NC(=O)CCS(=O)(=O)c2cc(Br)cc3c2N(C(C)=O)CC3)c(OC)c1,10%,-8%
COc1ccccc1CNC(=O)CSc1ncc2c(n1)-c1ccccc1N(Cc1ccc(C)cc1)S2(=O)=O,u,-6%
CCOC(=O)C1CCN(C(=O)Cn2ncc3c4ccccc4n(Cc4ccccc4F)c3c2=O)CC1,30%,-22%
O=C(Nc1cccc2cccnc12)c1cccc2ccccc12,u,42%[activator]
Cc1cccc(-c2noc(-c3ccc(N4CCN(C)CC4)c([N+](=O)[O-])c3)n2)c1,u,1.4µM*

(continued)
SMILES	PMP22 txn	HTT promoter inh
COCCNC(=O)c1c(NC(=O)Cc2coc3cc(C)ccc23)sc2c1CCCC2	-12%	-32%
Cc1cccc(CCNC(=O)Cn2ncc3c(=O)oc4ccccc4c32)c1	-25%	-5%
COc1cc(NS(=O)(=O)c2ccc(-c3cc(C)no3)cc2)cc(OC)c1	3.4µM*	1.8µM*
Cc1ccc(NC(=O)CN(C)S(=O)(=O)c2ccc3c(c2)n(C)c(=O)c(=O)n3C)cc1C	-4%	-17%
O=C(Nc1cccc(Br)c1)Nc1nc2c(s1)CCCCCC2	u	-13%
COc1cc2c(Nc3ccc(Br)cc3F)ncnc2cc1OCC1CCN(C)CC1	x	11%&-7%
CC1CCN(S(=O)(=O)c2ccc3nc(-c4cccnc4)cc(C(=O)NCCCOC(C)C)c3c2)CC1	-2%	-3%
N#Cc1ccccc1NC(=O)c1cc2c(=O)n3ccccc3nc2s1	-6%	-2%
COc1ccc(OCC(=O)NC2CC(=O)N(c3ccc4c(c3)OCCO4)C2)cc1 (stereo unspecified)	-7%	-7%
O=C(Cn1nc(C(F)(F)F)c2c1CCCC2)Nc1cccc(Cl)c1	u	u
Cc1ccc(NC(=O)Cn2nnnc2-c2ccccc2N)cc1	3%	-2%
CCc1nn(CC(=O)NCCCN(CC)CC)c(=O)c2cc3occc3n12	-24%	-8%
CCn1cc(C(=O)N2CCN(c3ccc(C(C)=O)cc3)CC2)c2cc(OC)c(OC)cc2c1=O	-8%	-6%
CC(O)Cn1cnc2c1c(=O)n(C)c(=O)n2C (stereo unspecified)	x	-7%
CNc1ccc(-c2nc(-c3ccncc3)no2)cc1[N+](=O)[O-]	-15%	62%[activator]
Cc1cccc(-c2nn3c(=O)cc(CN4CCN(C(=O)c5ccccc5Br)CC4)nc3s2)c1	u	-11%
CCOCCCN(Cc1ccco1)S(=O)(=O)c1cc2c(cc1C)NC(=O)CO2	-8%	-3%
Cc1cc(Nc2ccc(F)cc2F)nc(-n2nc(C)cc2C)n1	u	u
CCOC(=O)c1ccc2c(c1)N(CC(=O)Nc1ccc(C)cc1C)C(=O)c1ccccc1S2	-15%	-17%
COCCCNC(=O)c1nn(-c2ccc(C)cc2)nc1CO	0%	-15%
Cc1oc(-c2ccc(C(=O)NCc3ccccc3)cc2)nc1CN1CCc2ccccc21	u	u
COc1ccccc1-n1c(/C=C/c2c(C)n(C)c3ccccc23)nc2ccccc2c1=O	-14%	-22%
O=C(CSc1nc2c([nH]c3ccccc32)c(=O)n1-c1ccc(F)cc1)N1CCCc2ccccc21	-13%	6%
COc1ccc(OC)c(S(=O)(=O)N2CC=C(c3c(C)n(CC(=O)N4CCCC4)c4ccccc34)CC2)c1	-11%	0%
COCCCNC(=O)C1CCN(Cc2nc(-c3ccc(OC)c(OC)c3)oc2C)CC1	0%	-6%
CCCCCSc1ncnc2c1sc1nc(N3CCOCC3)c3c(c12)CCCC3	-17%	10%
Cc1sc2c(c1C)c(=O)n(CCc1ccccc1)c(=O)n2Cc1cccc(F)c1	4%	-17%
CCn1cc(C(=O)N2CCN(c3ccccc3OC)CC2)c(=O)c2cc(S(=O)(=O)N3CCCCC3)ccc21	-5%	-26%[11.5 µM]
O=C(COCc1cc(-c2cccs2)on1)N1CCN(c2cccc(Cl)c2)CC1	u	u
COc1ccc(CNC(=O)C2=C(C)C(=O)OC23CCCCC3)cc1	4%	-24%
CCC1CN(C(=O)N2CCC(C(=O)NCCN(CC)CC)CC2)c2cc(C)ccc2O1 (stereo unspecified)	-8%	1%
CC(C)Cn1c(-c2ccc(S(=O)(=O)N3CCOCC3)cc2)csc1=Nc1cc(Cl)ccc1Cl	-22%	u
O=C(CSc1ccccc1)NCc1ccc2c(c1)CCN2C(=O)c1ccc(F)cc1	10%	-10%
COc1cccc(C(=O)N(Cc2nc(-c3ccc(Cl)cc3)no2)C(C)C)c1OC	-27%	u
CCOc1ccc(-c2cc3c(=O)n(Cc4nc(-c5cccc(OC)c5OC)oc4C)ccn3n2)cc1Cl	-9%	-2%
O=c1c2oc3ccccc3c2n(Cc2ccccc2)c(=O)n1Cc1ccco1	u	-10%

Not a hit list (roughly 2.7% active in at least one column).
